Screens (PubChem BioAssay)
HIV Env fusion = blocks HIV Env-driven cell-cell fusion. HeLa-JRFL Env/CEM21 cell fusion, luciferase. inhibition, % at 12.3 µM. 360,000 tested, 1.1% active. AID 651610;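 active means mean replicate inhibition score of at least 50 and every replicate individually at or above 50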;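 further: 0% = plate neutral controls and 100% = maraviroc near 300 nM; one replicate is shown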
Yeast UUG start = alters start codon recognition fidelity in yeast | S. cerevisiae UUG-firefly luciferase reporter, luminescence/redox ratio | activity score, % at 18.7 µM | 350,000 tested, 0.13% active | AID 602363;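 active means replicate mean at a twofold rise or more, about +100% in these data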;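 further: firefly luciferase made from a UUG start codon reports start codon fidelity; reporter light over untreated wells divided by growth signal over untreated wells; some hits fall short of that in this replicate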
Active calls of the source: *; [ ] = remark or other dose. The list is partial; rates above refer to the full screens.

SMILES	HIV Env fusion	Yeast UUG start
O=C(C[C@@H]1CC[C@H](NS(=O)(=O)c2ccc(F)cc2)[C@H](CO)O1)NCCN1CCCCC1	-2[16.7 µM]	10
Cc1ccc(-c2ccc3c(c2)O[C@@H](CN(C)C(=O)C2CCC2)[C@@H](C)CN([C@H](C)CO)S3(=O)=O)cc1	14[16.7 µM]	1
O=C(NCC[C@@H]1CC[C@@H](NC(=O)C2CC2)[C@H](CO)O1)c1ccc(F)cc1	4[16.7 µM]	8
COC(=O)C[C@H]1C[C@H]2c3cc(NS(=O)(=O)c4ccccc4)ccc3O[C@H]2[C@@H](CO)O1	12[16.7 µM]	-9
CC(C)NC(=O)N(C)C[C@@H]1Oc2ccc(NS(=O)(=O)c3ccccc3)cc2CC(=O)N([C@@H](C)CO)C[C@H]1C	-6[16.7 µM]	13
COc1ccc(S(=O)(=O)N(C)C[C@H]2Oc3c(NC(=O)NC(C)C)cccc3C(=O)N([C@@H](C)CO)C[C@@H]2C)cc1	-8[16.7 µM]	1
C[C@@H]1CN([C@@H](C)CO)C(=O)c2cc(-c3cccc(F)c3)cnc2O[C@@H]1CN(C)C(=O)Nc1cc(F)ccc1F	-4[16.7 µM]	11
C[C@H](CO)N1C[C@H](C)[C@H](CN(C)C(=O)Nc2ccc3c(c2)OCO3)OCCCC[C@H](C)Oc2ccc(NC(=O)c3ccncc3)cc2C1=O	-18[16.7 µM]	4
C[C@H]1CN([C@@H](C)CO)C(=O)c2cc(C#Cc3ccccc3F)cnc2O[C@H]1CN(C)C(=O)Cc1ccccc1	47[16.7 µM]	0
CN1C(=O)c2cc(NC(=O)c3ccc(F)cc3)ccc2OC[C@H]2O[C@H](CC(=O)N3CCOCC3)CC[C@H]21	-14[16.7 µM]	7
C[C@H](CO)N1C[C@H](C)[C@H](CN(C)Cc2cccnc2)Oc2cc(Br)ccc2S1(=O)=O	-13[16.7 µM]	-4
CCCC#Cc1cnc2c(c1)C(=O)N([C@H](C)CO)C[C@@H](C)[C@H](CN(C)C(=O)c1cnccn1)O2	2[16.7 µM]	2
C[C@@H]1CCCCO[C@@H](CN(C)CC2CCCCC2)[C@H](C)CN([C@H](C)CO)C(=O)c2cc(NS(C)(=O)=O)ccc2O1	5[16.7 µM]	3
C[C@H]1CN([C@@H](C)CO)C(=O)c2cc(C#Cc3ccc(F)cc3)cnc2O[C@H]1CN(C)C	-4[16.7 µM]	7
CCC(=O)N(C)C[C@@H]1Oc2ncc(C#C[C@@H](C)O)cc2C(=O)N([C@H](C)CO)C[C@@H]1C	34[16.7 µM]	-8

The list goes on; the last two above are carried over.
SMILES	HIV Env fusion	Yeast UUG start
C[C@H]1CN([C@@H](C)CO)C(=O)c2cc(C#Cc3ccc(F)cc3)cnc2O[C@H]1CN(C)C	-4[16.7 µM]	7
CCC(=O)N(C)C[C@@H]1Oc2ncc(C#C[C@@H](C)O)cc2C(=O)N([C@H](C)CO)C[C@@H]1C	34[16.7 µM]	-8
C[C@H]1CN([C@@H](C)CO)C(=O)Cc2cc(N(C)C)ccc2O[C@H]1CN(C)Cc1ccc2c(c1)OCO2	7[16.7 µM]	3
C[C@H](CO)N1C[C@H](C)[C@@H](CN(C)C(=O)C2CCOCC2)Oc2ncc(C3=CCCC3)cc2C1=O	0[16.7 µM]	5
CCS(=O)(=O)Nc1ccc2c(c1)C(=O)N(C)C[C@@H](OC)[C@@H](C)CN(C(=O)COC)[C@@H](C)CO2	0[16.7 µM]	-17
O=C(C[C@H]1CC[C@@H](NC(=O)c2ccc3c(c2)OCO3)[C@H](CO)O1)NCc1ccc(Cl)cc1	11[16.7 µM]	-18
C[C@@H]1CN([C@H](C)CO)C(=O)Cc2cc(NC(=O)Nc3ccc(C(F)(F)F)cc3)ccc2O[C@H]1CN(C)S(=O)(=O)c1cccs1	14[16.7 µM]	-4
C[C@@H]1CN([C@H](C)CO)S(=O)(=O)c2ccc(C#CC3CC3)cc2O[C@H]1CN(C)Cc1ccc(F)cc1	26[16.7 µM]	7
O=C(C[C@@H]1C=C[C@H](NC(=O)NC2CCCCC2)[C@@H](CO)O1)NCc1ccc(Cl)cc1	6[16.7 µM]	-31
C[C@H](CO)N1C[C@H](C)[C@@H](CN(C)Cc2ccc3c(c2)OCO3)OCCCC[C@H](C)Oc2ccc(NC(=O)Nc3cccc4ccccc34)cc2C1=O	19[16.7 µM]	-3
O=C(C[C@@H]1C=C[C@H](NC(=O)NC2CCCCC2)[C@H](CO)O1)NCc1ccc(Cl)cc1	31[16.7 µM]	-17
C[C@H]1CCCCO[C@@H](CN(C)C(=O)Nc2ccc3c(c2)OCO3)[C@@H](C)CN([C@@H](C)CO)C(=O)c2cc(NC(=O)Nc3ccccc3)ccc2O1	-6[16.7 µM]	3
Cc1noc(C)c1NC(=O)N(C)C[C@@H]1Oc2c(NS(=O)(=O)c3ccc(F)cc3)cccc2C(=O)N([C@H](C)CO)C[C@@H]1C	8[16.7 µM]	9
C[C@H]1CN([C@@H](C)CO)C(=O)c2cc(-c3ccccc3)cnc2O[C@H]1CN(C)C(=O)C1CCOCC1	-7[16.7 µM]	-16
C[C@@H]1CN([C@@H](C)CO)C(=O)c2cc(NC(=O)c3ccncc3)ccc2O[C@@H](C)CCCCO[C@H]1CN(C)Cc1ccc2c(c1)OCO2	7[16.7 µM]	9
COc1ccc(S(=O)(=O)Nc2cccc3c2O[C@H](CN(C)Cc2ccc(C(F)(F)F)cc2)[C@@H](C)CN([C@H](C)CO)C3=O)cc1	-18[16.7 µM]	28
COc1ccc(CN(C)C[C@@H]2Oc3ccc(NS(=O)(=O)c4ccc(OC)cc4)cc3C(=O)N([C@H](C)CO)C[C@@H]2C)cc1	26[16.7 µM]	22
C[C@@H]1CN([C@@H](C)CO)C(=O)c2cccc(NS(=O)(=O)c3ccc(F)cc3)c2O[C@@H]1CN(C)C(=O)NC1CCCCC1	9[16.7 µM]	11
CO[C@H]1CN(C)C(=O)c2cc(NC(=O)c3ccc(F)cc3)ccc2OC[C@H](C)N(C)C[C@@H]1C	-17[16.7 µM]	-5
CS(=O)(=O)N1[C@H](C#N)[C@H](c2ccc(C#CC3CCCC3)cc2)[C@@H]1CO	-8[16.7 µM]	-20
COCCNC(=O)C[C@H]1C[C@@H]2c3cc(NC(=O)C4CCC4)ccc3O[C@@H]2[C@H](CO)O1	2[16.7 µM]	25
COc1ccc(S(=O)(=O)N(C)C[C@H]2Oc3c(NS(=O)(=O)c4ccccc4)cccc3C(=O)N([C@@H](C)CO)C[C@@H]2C)cc1	-9[16.7 µM]	3
Cc1ccc(S(=O)(=O)Nc2ccc3c(c2)C(=O)N([C@H](C)CO)C[C@H](C)[C@H](CN(C)C(=O)Nc2ccc(C(F)(F)F)cc2)OCCCC[C@@H](C)O3)cc1	-40[16.7 µM]	-20
C[C@H](CO)N1C[C@H](C)[C@H](CN(C)C(=O)Nc2ccc(F)cc2)OCCCC[C@H](C)Oc2ccc(NC(=O)CCCN(C)C)cc2C1=O	6[16.7 µM]	-7
C[C@H](CO)N1C[C@H](C)[C@@H](CN(C)C(=O)NC2CCCC2)Oc2ncc(-c3ccccc3F)cc2C1=O	2[16.7 µM]	7
CC(=O)N(C)C[C@@H]1Oc2cc(-c3ccccc3)ccc2S(=O)(=O)N([C@H](C)CO)C[C@H]1C	-12[16.7 µM]	-9
C[C@@H]1CCCCO[C@@H](CN(C)S(=O)(=O)c2ccc(F)cc2)[C@H](C)CN([C@@H](C)CO)C(=O)c2cc(NC(=O)Nc3cccc4ccccc34)ccc2O1	-60[16.7 µM]	-11
CC(C)CC#Cc1cnc2c(c1)C(=O)N([C@@H](C)CO)C[C@H](C)[C@@H](CN(C)Cc1ccccc1C(=O)O)O2	-9[16.7 µM]	15
O=C(C[C@@H]1C[C@@H]2c3cc(NC(=O)Nc4ccccc4)ccc3O[C@@H]2[C@H](CO)O1)NCc1ccccn1	11[16.7 µM]	-20
CN1CCN(C(=O)C[C@@H]2C[C@@H]3c4cc(NC(=O)c5cccnc5)ccc4O[C@@H]3[C@@H](CO)O2)CC1	34[16.7 µM]	-16
C[C@@H]1CN([C@@H](C)CO)C(=O)c2cc(C3=CCCC3)cnc2O[C@@H]1CN(C)S(C)(=O)=O	5[16.7 µM]	-7
COCC(=O)Nc1ccc2c(c1)OC[C@@H](C)NC[C@@H](C)[C@@H](OC)CN(C)C2=O	5[16.7 µM]	-5
C[C@H](CO)N1C[C@H](C)[C@H](CN(C)Cc2ccc(-c3ccccc3)cc2)Oc2ccc(NC(=O)NC3CCCCC3)cc2C1=O	6[16.7 µM]	20
CCC(=O)N(C)C[C@H]1Oc2cc(C#CCN(C)C)ccc2S(=O)(=O)N([C@H](C)CO)C[C@H]1C	-18[16.7 µM]	8
C[C@@H]1CCCCO[C@@H](CN(C)Cc2ccc(C(=O)O)cc2)[C@H](C)CN([C@@H](C)CO)C(=O)c2cc(NS(=O)(=O)c3ccc(Cl)cc3)ccc2O1	-7[16.7 µM]	1
COc1ccc(S(=O)(=O)Nc2ccc3c(c2)C(=O)N([C@H](C)CO)C[C@@H](C)[C@@H](CN(C)Cc2ccccc2)OCCCC[C@H](C)O3)cc1	-38[16.7 µM]	16
O=C(C[C@@H]1CC[C@H](NC(=O)c2ccncc2)[C@H](CO)O1)Nc1ccccc1	-14[16.7 µM]	-20
C[C@H]1CN([C@@H](C)CO)C(=O)Cc2cc(NS(=O)(=O)c3ccc(Cl)cc3)ccc2O[C@H]1CN(C)S(=O)(=O)c1cccs1	45[16.7 µM]	-9
C[C@H](CO)N1C[C@H](C)[C@@H](CN(C)C(=O)Cc2cccnc2)Oc2ncc(-c3ccccc3)cc2C1=O	12[16.7 µM]	-5
C[C@H]1CN([C@@H](C)CO)S(=O)(=O)c2ccc(-c3cccc(F)c3)cc2O[C@H]1CN(C)S(C)(=O)=O	23[16.7 µM]	0
Cc1ccc(S(=O)(=O)N(C)C[C@H]2Oc3c(NC(=O)c4cc(C)nn4C)cccc3C(=O)N([C@@H](C)CO)C[C@@H]2C)cc1	-12[16.7 µM]	6
CC(C)NC(=O)Nc1ccc2c(c1)C(=O)N([C@@H](C)CO)C[C@H](C)[C@H](CN(C)S(=O)(=O)c1ccc(Cl)cc1)OCCCC[C@@H](C)O2	-24[16.7 µM]	-3
Cc1ccc(S(=O)(=O)N(C)C[C@@H]2OCCCC[C@@H](C)Oc3ccc(NS(=O)(=O)c4ccccc4)cc3C(=O)N([C@H](C)CO)C[C@@H]2C)cc1	-1[16.7 µM]	3
CC(=O)N(C)C[C@@H]1Oc2cc(-c3ccccc3)ccc2S(=O)(=O)N([C@H](C)CO)C[C@@H]1C	9[16.7 µM]	29
CCCN(C)C[C@H]1OCCCC[C@@H](C)Oc2ccc(NC(=O)Nc3c(C)noc3C)cc2C(=O)N([C@H](C)CO)C[C@@H]1C	15[16.7 µM]	-4
C[C@@H]1CN([C@H](C)CO)C(=O)c2cc(NC(=O)Nc3ccc4c(c3)OCO4)ccc2O[C@H]1CN(C)C(=O)Nc1ccc2c(c1)OCO2	16[16.7 µM]	-1
O=C(N[C@@H]1CC[C@@H](CCNC(=O)C2CC2)O[C@@H]1CO)c1ccncc1	1[16.7 µM]	13

6 entries out of the list, arranged by formula weight, descending.
SMILES	HIV Env fusion	Yeast UUG start
C[C@H](CO)N1C[C@H](C)[C@H](CN(C)C(=O)Nc2ccc3c(c2)OCO3)OCCCC[C@H](C)Oc2ccc(NC(=O)c3ccncc3)cc2C1=O	-18[16.7 µM]	4
COc1ccc(S(=O)(=O)Nc2ccc3c(c2)C(=O)N([C@H](C)CO)C[C@@H](C)[C@@H](CN(C)Cc2ccccc2)OCCCC[C@H](C)O3)cc1	-38[16.7 µM]	16
C[C@H]1CN([C@@H](C)CO)C(=O)c2cc(-c3ccccc3)cnc2O[C@H]1CN(C)C(=O)C1CCOCC1	-7[16.7 µM]	-16
CCC(=O)N(C)C[C@H]1Oc2cc(C#CCN(C)C)ccc2S(=O)(=O)N([C@H](C)CO)C[C@H]1C	-18[16.7 µM]	8
O=C(C[C@@H]1C=C[C@H](NC(=O)NC2CCCCC2)[C@H](CO)O1)NCc1ccc(Cl)cc1	31[16.7 µM]	-17
COCCNC(=O)C[C@H]1C[C@@H]2c3cc(NC(=O)C4CCC4)ccc3O[C@@H]2[C@H](CO)O1	2[16.7 µM]	25

Additional entries follow:
SMILES	HIV Env fusion	Yeast UUG start
C[C@H]1CCCCO[C@@H](CN(C)Cc2ccc(C(=O)O)cc2)[C@@H](C)CN([C@@H](C)CO)C(=O)c2cc(NC(=O)Nc3ccc(C(F)(F)F)cc3)ccc2O1	5[16.7 µM]	-5
C[C@H](CO)N1C[C@H](C)[C@H](CN(C)Cc2ccc(C(F)(F)F)cc2)OCCCC[C@H](C)Oc2ccc(NS(=O)(=O)c3ccc(F)cc3)cc2C1=O	8[16.7 µM]	23
COc1ccc(NC(=O)N[C@@H]2CC[C@@H](CCn3cc(-c4ccccc4)nn3)O[C@H]2CO)cc1	12[16.7 µM]	-17
C[C@H]1CN([C@@H](C)CO)C(=O)Cc2cc(NC(=O)C3CC3)ccc2O[C@@H]1CN(C)S(=O)(=O)c1ccccc1	9[16.7 µM]	5
C[C@@H]1CN([C@H](C)CO)C(=O)c2cc(NC(=O)CCCN(C)C)ccc2O[C@@H](C)CCCCO[C@H]1CN(C)S(=O)(=O)c1cn(C)cn1	7[16.7 µM]	-19
C[C@@H]1CN([C@@H](C)CO)C(=O)c2cc(NS(=O)(=O)c3ccccc3)ccc2O[C@@H](C)CCCCO[C@@H]1CN(C)C(=O)Nc1cccc2ccccc12	6[16.7 µM]	3
O=C(C[C@H]1C[C@@H]2c3cc(NC(=O)NC4CCCC4)ccc3O[C@@H]2[C@H](CO)O1)NCc1ccc(Oc2ccccc2)cc1	-1[16.7 µM]	-13
COc1ccc(NC(=O)N(C)C[C@H]2Oc3ncc(C#C[C@H](C)O)cc3C(=O)N([C@@H](C)CO)C[C@H]2C)cc1	6[16.7 µM]	-11
COc1cccc(-c2cnc3c(c2)C(=O)N([C@@H](C)CO)C[C@H](C)[C@H](CN(C)C(=O)CN(C)C)O3)c1	-1[16.7 µM]	20
